# Source: PubChem
# TRPML1 ag = qHTS for Agonists of the Human Mucolipin Transient Receptor Potential 1 (TRPML1) | TRPML1-expressing cells, Ca2+ dye fluorescence, FDSS; host cell line not named in the record; reference of the full effect not given here | activation, % (no concentration beside the values) | 410,000 compounds, 0.12% hits; in the data active = activation above about 50%; inconclusive = about 30% to 50%; inactive = below about 30%; further: 0% is about no effect; the text of the record puts the active cut at 80%
#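 Cells: TRPML1-DL, 1X Tet inducer, ~16 h at 37 degrees C/5% CO2. Dye: ABD Ca8 no-wash + quencher, 45-90 min RT. Read: 10 s baseline, compound add, 110 s agonist phase; 54-4 EC80 (4uM final), 110 s antagonist phase.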
# D2 ag = Beta-Arrestin HTS for Positive Allosteric Modulators of the Human D2 Dopamine Receptor: Agonists | activation, % (concentration not given with the values) | DiscoveRx PathHunter D2 beta-arrestin, luminescence, 90 min; 100% = 57 uM dopamine signal | D(2) dopamine receptor (Homo sapiens), P14416 | AID 624465, 2012 | 360,000 compounds, 0.084% hits; in the data active = activation above about 40%; inconclusive = about 15% to 40%; inactive = below about 15%; further: the text of the record calls up to 30% inactive
#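 DiscoveRx PathHunter D2 beta-arrestin cells (2,100/well) attached overnight, then compound-stimulated 90 min at 37 C in HBSS/10 mM HEPES/0.1% Tween-20 buffer; beta-galactosidase complementation read by luminescence after 1 h at ambient temperature. Dopamine 57 uM final (EC100) as control.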
# CtBP-E1A inh = qHTS Assay for Inhibitors of the CtBP/E1A Interaction. activity change, % (concentration not given with the values). 340,000 compounds, 0.49% hits. AlphaScreen GST-E1A/His-CtBP binding, 1536-well; active compounds read low; control for the full effect not named in the record. CtBP / adenovirus E1A interaction (AlphaScreen); in the data active means activity change below about -65%; inconclusive means about -30% to -65%; inactive means above about -30%; further: on the % scale 0 is the no-effect control and ±100 the full control effect
#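 Steps: dispense buffer (Tris pH 8.0, NaCl 300 mM, TCEP 1 mM, BSA, Tween 20); add 5X protein mix (GST-E1A, His-CtBP, 125 nM each); pin 23 nL compound; 2 h at 37 °C, dark; add 5X beads (50 ug/mL); 1 h; read.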
# Six1-Eya2 inh = qHTS Assay for Inhibitors of the Six1/Eya2 Interaction | Homeobox protein SIX1 (Homo sapiens) + Protein phosphatase EYA2 (Homo sapiens), … | AlphaScreen GST-Six1/His-Eya2 binding, biochemical; active compounds read low; control for the full effect not named in the record | activity change, % (concentration not given with the values) | 360,000 compounds, 0.56% hits; in the data active = activity change below about -65%; inconclusive = about -30% to -65%; inactive = above about -30%; further: on the % scale 0 is the no-effect control and ±100 the full control effect
# Target sequence (O00167 whole entry, looked up): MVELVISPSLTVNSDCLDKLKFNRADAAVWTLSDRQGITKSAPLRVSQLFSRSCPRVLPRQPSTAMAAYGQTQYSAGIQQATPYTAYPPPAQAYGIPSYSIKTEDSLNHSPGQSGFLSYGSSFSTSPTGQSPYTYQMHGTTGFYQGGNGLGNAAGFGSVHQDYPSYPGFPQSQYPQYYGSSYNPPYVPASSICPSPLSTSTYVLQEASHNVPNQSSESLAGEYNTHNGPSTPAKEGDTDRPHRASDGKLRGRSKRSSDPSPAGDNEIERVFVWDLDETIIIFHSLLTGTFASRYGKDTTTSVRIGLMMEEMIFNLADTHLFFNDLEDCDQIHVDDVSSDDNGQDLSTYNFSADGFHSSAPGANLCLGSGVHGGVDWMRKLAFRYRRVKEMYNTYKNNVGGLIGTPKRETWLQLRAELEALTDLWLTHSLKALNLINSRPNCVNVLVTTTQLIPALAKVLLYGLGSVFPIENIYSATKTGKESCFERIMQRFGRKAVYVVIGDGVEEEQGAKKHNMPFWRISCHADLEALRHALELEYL
# Target sequence (Q15475 whole entry, looked up): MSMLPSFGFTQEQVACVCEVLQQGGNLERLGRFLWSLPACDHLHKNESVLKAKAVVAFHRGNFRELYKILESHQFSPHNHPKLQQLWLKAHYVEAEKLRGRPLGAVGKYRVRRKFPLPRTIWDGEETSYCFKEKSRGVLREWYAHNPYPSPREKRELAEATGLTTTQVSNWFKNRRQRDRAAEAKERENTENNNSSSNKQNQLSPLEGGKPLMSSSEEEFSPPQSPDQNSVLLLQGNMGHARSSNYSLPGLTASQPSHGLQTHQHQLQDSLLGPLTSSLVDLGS
#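 Six1/Eya2 binding was read as AlphaScreen signal after compounds were pinned into GST-Six1 plus His-tagged Eya2 (5X stock 250/500 nM) in pH 8.0 Tris/NaCl/TCEP buffer, beads added, then incubated 1 h, 37 C, dark.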
# D2 potentiator = Beta-Arrestin HTS for Positive Allosteric Modulators of the Human D2 Dopamine Receptor: Potentiators. D(2) dopamine receptor (Homo sapiens), P14416. DiscoveRx D2 beta-arrestin cells, luminescence, 90 min; 100% = 57 uM dopamine signal. potentiation, % (test concentration not listed). 360,000 compounds, 0.23% hits. AID 624464, 2012; active = potentiation of 50% or more; inconclusive = 30% to 50%; inactive = 30% or less;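 further: compound concentration not given in the record; tested on top of an EC20 dose of dopamine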
#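 D2 cells co-treated with compound plus 50 nM dopamine (EC20) for 90 min at 37 deg C to detect potentiation. Beta-arrestin recruitment was read as enzyme-fragment luminescence after 1 h at ambient temperature. Full response was set by 57 uM dopamine.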
# PINK1 modulator = A Quantitative High throughput Screen to Identify Chemical Modulators of PINK1 Expression | PINK1 immunofluorescence, high-content cytometry, 24 h | Potency, µM (titrated, usually from 76.6 µM), inactives show at the top dose activation (PINK1 increase), usual class: activators | 410,000 compounds, 0.2% hits; active = well fitted activation curve with a large enough effect; inconclusive = small, poorly fitted or top-dose-only effect; inactive = flat fitted curve, though single readings scatter; cell line not stated here;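 further: potency means the concentration at half of the fitted maximal effect; % of control where 0% means no effect; nearly all actives have a fitted effect of over 65% in size; a mitochondrial uncoupler was the plate control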
#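 Cells are seeded, rested 12 hours, then given compound at five concentrations or DMSO for 24 hours. After fixation, blocking and antibody staining, PINK1 amount and mitochondrial localization are scored; CCCP serves as control.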
# * hit, by the source's call; u = inconclusive; x = no result given; [ ] = another dose, or the depositor's remark.
Structure,D2 ag,PINK1 modulator,CtBP-E1A inh,D2 potentiator,Six1-Eya2 inh,TRPML1 ag
COc1cc(N2N=C(c3ccccc3)CC2c2ccccc2)c(C=O)cc1C=O (configuration not stated),2.1,0.8%,-3,-19,8,-0.9
CC(=O)Nc1cccc(N=NN2CCOCC2)c1,-20,1.1%,-13,-3,-3,0.9
CCOc1ccccc1N1CC(C(=O)N2CCN(Cc3ccc(C#N)cc3)CC2)CC1=O (configuration not stated),2.5,-0.2%,7,-4,8,-0.3
CC12CCC(C(NC(=S)NN)C1=O)C2(C)C (configuration not stated),-2.5,1.4%,-1,-2,-1,-0.1
Cc1cc(=O)[nH]c(SCC(=O)c2ccccc2)c1C#N,-0.2,-3.0%,-4,2,-14,-0.6
COc1nccnc1NS(=O)(=O)c1ccc(NC(=O)c2cccc(C)c2)cc1,-1.0,-0.2%,-1,0,-2,0.1
CCCc1nnc(NC(=O)OCC)s1,4.4,-0.6%,x,-4,8,-0.4
CC(=O)c1c(C)[nH]c(C(=O)N2CCCCCC2)c1C,0.0,0.8%,3,-6,-2,-0.1
CCN(CC)CCCNC(=O)CCn1nc(-c2ccccc2)ccc1=O,-9.0,-0.2%,x,-5,4,0.9
CCOC(=O)C1=NN(C(C)=O)C2(CC(=O)N(c3cccc(C)c3)C2=O)C1 (configuration not stated),1.4,2.2%,1,2,2,4.9
COc1ccc(S(=O)(=O)N2Cc3ccccc3CC2C(=O)N2CCOCC2)cc1 (configuration not stated),0.3,0.3%[38.3 µM],8,-14,3,0.2
CCN(CC)C(=O)CSc1nc2ccc(NC(=O)CSc3nnc(N)s3)cc2s1,2.1,-2.3%,-9,1,-1,-1.1
COc1ccc(CC(=O)N(C)CC(=O)Nc2ccc(F)cc2)cc1S(=O)(=O)N1CCOCC1,8.3,0.4%,0,-6,3,-0.6
CCc1ccc(C2C(C#N)=C(N)C(C#N)(C#N)C3=CCC(C(C)(C)C)CC32)cc1 (configuration not stated),-7.1,-4.5%,-4,-13,-5,0.0
O=C(NNC(=O)C1CCN(Cc2ccccc2)CC1)c1cccs1,5.1,2.8%,17,-13,8,0.8
O=[N+]([O-])c1cc(/C=N/N2CCOCC2)cs1,-1.7,-0.6%,-2,-2,1,-1.3
Cc1ccc(C(c2sc3ncnn3c2O)N2CCC(C)CC2)cc1 (configuration not stated),3.3,0.8%,2,-4,1,-0.2
CCc1c(C)sc(NC(=O)CC#N)c1C#N,-2.2,-2.1%[38.3 µM],-67*,-1,u,0.4
CCS(=O)(=O)N1CCC(C(=O)NCCN2CCN(Cc3ccccc3)CC2)CC1,-2.0,x,-6,-8,-2,1.0
O=C1NC[C@H](CCCCN2C[C@@H](Cc3ccccc3)N(CC3CCCCC3)C(=O)C2=O)N(CCC2CCCCC2)C1=O,x,19%,2,x,-3,-0.5
Cc1cccnc1NC1(C(F)(F)F)N=C(c2ccccc2)NC1=O (configuration not stated),-1.6,0.4%[38.3 µM],-3,2,1,0.3
O=C(NCc1ccc2c(c1)OCO2)c1ccco1,-1.8,0.3%,4,-5,1,-0.9
C=CCC1(CC=C)CC(Cc2cnccn2)N(C(=O)OC(C)(C)C)C1 (configuration not stated),1.0,2.9%,0,0,8,2.2
CC(OC(=O)CSCC(=O)Nc1ccc(Cl)cc1)C(=O)N(C)Cc1ccccc1 (configuration not stated),-1.5,6.9%,-1,4,-4,0.4
O=C(Nc1ccccn1)C1CCN(C(=O)c2ccc(F)cc2)CC1,-4.2,0.6%,6,-11,1,0.5

# Complete entries, quoted from the list. Order of screens: D2 ag | PINK1 modulator | CtBP-E1A inh | D2 potentiator | Six1-Eya2 inh | TRPML1 ag
# CCc1c(C)sc(NC(=O)CC#N)c1C#N as listed: -2.2 | -2.1%[38.3 µM] | -67* | -1 | u | 0.4
# O=C1NC[C@H](CCCCN2C[C@@H](Cc3ccccc3)N(CC3CCCCC3)C(=O)C2=O)N(CCC2CCCCC2)C1=O as listed: x | 19% | 2 | x | -3 | -0.5

# Reprinted at random: three records from the list.
Structure,D2 ag,PINK1 modulator,CtBP-E1A inh,D2 potentiator,Six1-Eya2 inh,TRPML1 ag
O=C(NNC(=O)C1CCN(Cc2ccccc2)CC1)c1cccs1,5.1,2.8%,17,-13,8,0.8
CCOC(=O)C1=NN(C(C)=O)C2(CC(=O)N(c3cccc(C)c3)C2=O)C1 (configuration not stated),1.4,2.2%,1,2,2,4.9
O=C(Nc1ccccn1)C1CCN(C(=O)c2ccc(F)cc2)CC1,-4.2,0.6%,6,-11,1,0.5

# (cont.)
Structure,D2 ag,PINK1 modulator,CtBP-E1A inh,D2 potentiator,Six1-Eya2 inh,TRPML1 ag
O=S1(=O)CC(N2CCN(c3ccccn3)CC2)CN1Cc1ccc(F)cc1 (configuration not stated),0.9,2.8%,1,-5,-2,-0.7
CSc1ccccc1NC(=O)Nc1cccc2ccccc12,-3.4,0.5%,7,8,6,-0.4
CC(NC(=O)CN1CCN(S(=O)(=O)c2ccc(Br)cc2)CC1)c1ccccc1 (configuration not stated),-9.6,-5.5%,-17,2,1,1.0
CC(C)(C)C(=O)NC1CCN(S(=O)(=O)c2cccc(C(F)(F)F)c2)CC1,-1.1,1.6%,7,-4,12,1.6
COc1ccc(-c2nnn(CC(=O)N(Cc3ccc(F)cc3)C(C(=O)NC3CCCC3)c3ccc(F)cc3)n2)cc1 (configuration not stated),-1.9,14%[38.3 µM],-8,4,-4,-0.1
O=C(CN1CCN(S(=O)(=O)c2ccccc2F)CC1)NC1CCCC1,-4.6,-2.4%,-9,1,1,1.4
CN(c1ccccc1C(=O)N1CCN(c2cccc(Cl)c2)CC1)S(C)(=O)=O,0.8,-1.5%[38.3 µM],3,-15,-1,1.3
CCc1ccc(Cn2nnc(C(=O)Nc3cccc(C)c3)c2N)cc1,-3.0,16%,-8,-2,-12,2.9
O=C(NN1C(=O)C2C3C=CC([C@@H]2C1=O)C31CC1)c1ccccc1 (some centres not stated),-0.8,1.6%,x,3,2,2.7
COc1ccc(C2c3ccsc3CCN2C(=O)NC(C)(C)C)cc1 (configuration not stated),-6.4,0.7%,x,-22,-3,0.3
Cc1c(Cl)cccc1-c1ccc(/C=N/n2cnnc2)o1,-0.4,3.1%,-6,-5,0,1.3
CCC(C)(C)C1CCC(=NNC(=S)Nc2ccccc2)CC1 (configuration not stated),-4.2,1.5%,-2,-5,-6,0.1
C/C(=N/OC(=O)CC(C)C)c1cc(-c2ccc(Cl)cc2)no1,3.7,-1.1%,0,-5,21,-0.7
CSc1cccc(NC(=O)C(C)C)c1,1.0,0.1%,-1,0,-4,1.4
CC(NC(=O)c1cc(-c2ccncc2)nc2ccc(Br)cc12)C1CCCO1 (configuration not stated),4.8,1.7%,16,15,8,0.1
O=c1/c(=C\c2cccnc2)sc2nc3ccccc3n12,-4.0,4.3%,-9,-4,-3,-0.2
Cc1cc(C)n2c(=O)c3ccc(Cl)cc3nc2c1C#N,-1.0,6.2%,-4,-6,1,0.7
Fc1ccc(-c2nc3ccncc3[nH]2)cc1,-2.2,-0.6%,-1,4,-1,1.5
Cc1c(NC(=O)c2ccc([N+](=O)[O-])o2)cccc1-c1nc2ncccc2o1,7.4,-0.6%,7,21,7,0.1
O=C(O)CC(Cn1cnnn1)c1ccccc1 (configuration not stated),-1.1,-0.6%,6,-4,0,-0.1
O=C(N/N=C/C=C/c1ccccc1[N+](=O)[O-])c1cccs1,1.5,2.2%,-15,-18,-15,1.4
CC(C)C(NC(=O)C1CCC(C(C)(C)C)CC1)C(=O)NCCCN1CCCCC1 (configuration not stated),-2.6,0.3%,6,1,-11,-1.0
O=C1NC2CCc3nc4ccccc4c(=O)n3C2=Nc2ccccc21 (configuration not stated),-4.5,-0.6%,0,-28,7,x
Cc1nc2c(C(=O)NCCc3ccccc3)c[nH]n2c(=O)c1Cl,-0.7,3.0%[38.3 µM],-1,8,-1,2.2
COc1ccc(CN2CCNC(=O)C2CC(=O)NCc2cn3ccc(C)cc3n2)c(OC)c1 (configuration not stated),-1.1,0.9%,-4,-7,-5,0.9
Cc1ccc(N/C(CSC(N)=O)=N\S(=O)(=O)c2ccc(C)cc2)cc1,-4.6,4.5%,-17,-8,-10,0.9
COc1nnc(OC)c2ccccc12,-0.7,5.1%[38.3 µM],12,-4,1,-0.6
Cc1onc(C(=O)N2CCC(C(N)=O)CC2)c1-c1ccccc1Cl,-4.0,2.8%,10,-10,2,1.0
CC(C)[C@@H]1Cc2[nH]n(C)c(=O)c2[C@H](c2ccc(Cl)cc2)O1,x,6.2%,4,x,2,0.3
COc1ccc(N(C(C)C(=O)N/N=C(\C)C(C)(C)C)S(C)(=O)=O)cc1 (configuration not stated),0.8,1.6%,x,-3,-3,0.6
CC(C)C(=O)N=C1NC(=O)CS1,-4.3,1.5%,13,-10,-2,1.4
Cc1c(C(=O)OC(C)C)sc(NC(=O)c2cccnc2)c1C#N,-0.1,8.5%,-1,-9,-4,0.6
OCCC1CN(Cc2cccn2-c2cccnc2)CCN1Cc1ccccc1 (configuration not stated),-1.6,-2.1%,6,-9,-4,0.1
O=C(Nc1ccccc1[N+](=O)[O-])C1=C(O)CCn2c1nc1ccccc12,0.9,x,5,-6,-1,0.1
COc1ccc(C(=O)OC(C)C(=O)NC2CCCC2)cc1S(=O)(=O)N1CCOCC1 (configuration not stated),0.1,3.7%,2,1,-1,0.7
Cc1c(NC(=O)COc2ccccc2Cl)c(=O)n(-c2ccccc2)n1C,1.6,0.4%,0,-4,4,4.5
Cc1ccc(C(C(=O)NCc2ccco2)N(C(=O)Cc2cccs2)c2cccnc2)cc1 (configuration not stated),-1.0,0.0%,0,-12,-5,-0.8
O=C(O)c1ccc(N/N=C/c2cccc(F)c2)cc1,1.6,u,6,20,-18,0.4
CC(C)(O)C(=O)NNC(=S)NCc1ccco1,-5.0,0.2%,x,-24,-7,1.4
C[C@H]1O[C@@H](O[C@H]2CC[C@@]3(C)C(CC[C@]4(C)C3C=C[C@]35OC[C@@]6(CCC(C)(C)C[C@H]63)[C@@H](O)C[C@]54C)[C@]2(C)CO)[C@H](O)[C@@H](O[C@@H]2O[C@H](CO)[C@@H](O)[C@H](O)[C@H]2O)[C@H]1O (some centres not stated),1.0,9.5%,2,-35,1,6.7
CC(C)CN(CC(C)C)C(=O)c1cccc(S(=O)(=O)N2CCc3ccccc32)c1,-6.1,17%,4,-7,2,2.1
